procasp7 counter: counter-screen for procaspase-3 activators: activators of human procaspase-7; 330,000 compounds, 0.093% hits; recombinant procaspase-7, Ac-DEVD-pNA absorbance 405 nm; D23A/D198A/D206A triple mutant, cannot self-cleave; scale: DMSO 0, 5 µM enzyme 100; activation, % at 8.5 µM; AID 463210; P55210;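 active = percent activation above the screen-wide mean plus 3 SD, cut at about 25% in these data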
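Detection: p-Nitroaniline absorbance at 405 nm, read at 0 and 120 min; system: Uncleavable procaspase-7 mutant enzyme; evaluation: % activation from two-timepoint absorbance difference, scaled to controls; times: 1 h enzyme–compound preincubation and 2 h substrate reaction, both 25 °C; buffer or medium: Zinc-free HEPES pH 7.4 with 300 mM NaCl, 0.01% Triton X-100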
CTSL1 counter: cathepsin L1 inhibition, PFM18AAP counter-screen; recombinant F. hepatica cathepsin L1, Z-Leu-Arg-MCA fluorescence; inhibition, % at 5.96 µM; 300,000 compounds, 0.49% hits;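 active = inhibition above the mean of all tested compounds plus 3 SD, set per screening campaign, cut at about 17% in these data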;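 also: 0% = plate median of test compound wells and 100% = 1 µM Z-Phe-Ala-diazomethylketone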
AHR activator: activators of human aryl hydrocarbon receptor; 320,000 compounds, 2.5% hits; AHR-responsive luciferase reporter cells, luminescence; AID 2796; activation, % at 5 µM; in the data active = activation above about 47%;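 also: 0% = vehicle wells and 100% = reference agonist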
PAFAH2 inh: PAFAH2 (human) inhibition | inhibition, % at 3.39 µM | recombinant PAFAH2, FP-rhodamine activity probe, fluorescence polarization | Q99487 | AID 492956 | 340,000 compounds, 0.99% hits;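 active = inhibition above the mean over all tested compounds plus 3 SD, cut at about 30% in these data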;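 also: inhibitors block probe labeling of enzyme so polarization drops; 0% = enzyme with DMSO and 100% = wells lacking PAFAH2 protein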
HCV core dimer: HCV core protein dimerization inhibition; TR-FRET GST/Flag-core106 dimerization, 1536-well; inhibition, % at 5 µM; 300,000 compounds, 0.33% hits; AID 1899;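 active = inhibition above the mean of all tested compounds plus 3 SD, set per screening campaign, cut at about 45% in these data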
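Material: GST/Flag-tagged HCV core106 proteins. Incubation: 4 h, 22.5 °C incubation. Read-out basis: inhibition (%) from 671 over 617 nm ratio. Measured by: TR-FRET, excitation 340 nm, emission 617 and 671 nm.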
TPT1 inhibitor: inhibitors of Candida albicans tRNA 2'-phosphotransferase TPT1; recombinant caTPT1, FP RNA substrate dephosphorylation; inhibition, % at 5 µM; 300,000 compounds, 0.81% hits; AID 1962;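 active = inhibition above the mean of all tested compounds plus 3 SD, set per screening campaign, cut at about 24% in these data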;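 also: plate controls were DMSO alone for no effect and ferristatin control at 100 nM for full effect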
PP5 primary: blocks human protein phosphatase 5 activity; 320,000 compounds, 0.18% hits; inhibition, % at 6.7 µM; P53041; purified PP5c, OMFP substrate fluorescence; AID 1987;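 active = inhibition above the campaign's mean inhibition across all tested compounds plus 3 SD, cut at about 9.5% in these data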;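 also: 0% = DMSO only and 100% = 100 µM cantharidin control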
PP1 inh: PP1-alpha (human) inhibition in PP5 counter-screen; P62136; purified PP1alpha, OMFP fluorescence; inhibition, % at 6.7 µM; 320,000 compounds, 0.9% hits; AID 2235;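 active = inhibition above the mean inhibition of all tested compounds plus 3 SD, computed separately for each screening campaign, cut at about 15% in these data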
Target sequence (P62136 whole entry, looked up): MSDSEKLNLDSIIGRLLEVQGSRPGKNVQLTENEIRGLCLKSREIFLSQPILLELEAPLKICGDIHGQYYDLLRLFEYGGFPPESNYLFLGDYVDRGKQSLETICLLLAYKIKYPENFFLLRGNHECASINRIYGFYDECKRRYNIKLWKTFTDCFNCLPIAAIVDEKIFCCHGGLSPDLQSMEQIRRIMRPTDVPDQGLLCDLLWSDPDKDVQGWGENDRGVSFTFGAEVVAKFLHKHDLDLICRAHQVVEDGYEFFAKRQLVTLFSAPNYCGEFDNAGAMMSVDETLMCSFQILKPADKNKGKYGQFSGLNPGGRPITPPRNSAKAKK
An asterisk follows results filed as active. These rows are one share of the data. The share of hits here may be higher or lower than overall.

#	Structure	procasp7 counter	CTSL1 counter	AHR activator	PAFAH2 inh
1	Cc1nc(-c2ccc(NC(=O)c3cccs3)cc2)cs1	12.3	6.4	-9.9	-1.7
2	Oc1ccc2ccccc2c1C=NC12CN3CCN(CN(C3)C1)C2	-13.3	32.5*	30.7	12.5
3	COc1ccc(-c2noc(-c3cccs3)n2)cc1OC	5.4	1.8	6.7	0.4
4	Cn1c(SCC(=O)NCC2CCCO2)ncc(C(=O)Nc2ccc(Cl)cc2)c1=O (configuration not stated)	-3.1	-0.2	55.9*	1.0
5	COC(=O)c1sccc1NC(=O)/C=C/c1ccc(Cl)cc1Cl	-0.8	1.7	7.7	-2.5
6	CCCCOc1ccc(C(=O)Nc2cccc(C)n2)cc1	7.8	3.3	5.5	4.9
7	COc1ccccc1-c1nc(-c2ccc(C(=O)O)cc2)no1	6.4	-3.5	3.2	-0.5
8	COC(=O)c1ccc(NC(=O)c2cccc(OC)c2)cc1	1.9	-2.5	0.5	-1.7
9	O=[N+]([O-])c1ccc(Cl)c(S(=O)(=O)Nc2cccc(-c3ccc(N4CCOCC4)nn3)c2)c1	7.6	3.1	-0.1	4.5
10	COc1ccc(C(=O)Nc2ccc3c(c2)C(=O)N(C)C3=O)cc1OC	9.8	-6.8	18.5	-2.1

#	HCV core dimer	TPT1 inhibitor	PP5 primary	PP1 inh
1	3.2	-9.6	0.2	0.7
2	31.1	-4.1	5.6	2.6
3	-1.1	2.3	-1.6	0.5
4	0.9	2.9	-1.1	-1.0
5	-2.4	-2.0	-1.2	1.1
6	1.6	2.7	-0.4	2.0
7	-3.6	-3.5	3.7	2.3
8	-5.8	0.2	5.2	-1.0
9	4.5	-5.4	4.2	-0.9
10	-12.2	-5.5	-0.6	1.7

More structures follow.
#	Structure	procasp7 counter	CTSL1 counter	AHR activator	PAFAH2 inh
11	c1csc(CSc2nc3ccccc3s2)c1	3.1	-6.5	26.4	-1.1
12	COc1ccc(-c2csc(Nc3ccccn3)n2)cc1	-3.3	1.5	2.8	-3.9
13	Cn1c(SCC(=O)NCC2CCCO2)ncc(C(=O)Nc2ccccc2)c1=O (configuration not stated)	5.5	2.1	12.8	9.2
14	Fc1ccccc1-c1nc(-c2ccc(Cl)cc2)no1	0.3	4.5	85.4*	-2.3
15	CN(c1cccc(NC(=O)COc2ccccc2)c1)S(C)(=O)=O	8.6	-6.5	-0.5	-3.5

#	HCV core dimer	TPT1 inhibitor	PP5 primary	PP1 inh
11	-5.6	-0.9	1.1	1.4
12	-3.3	-1.7	4.0	3.1
13	-2.3	0.3	4.5	-5.7
14	1.2	-0.5	2.2	3.7
15	2.3	0.1	0.7	-2.4

Molecules from the list above that contain a carbonyl joined to an NH by a bond outside any ring (8):
#	Structure	procasp7 counter	CTSL1 counter	AHR activator	PAFAH2 inh
1	Cc1nc(-c2ccc(NC(=O)c3cccs3)cc2)cs1	12.3	6.4	-9.9	-1.7
4	Cn1c(SCC(=O)NCC2CCCO2)ncc(C(=O)Nc2ccc(Cl)cc2)c1=O (configuration not stated)	-3.1	-0.2	55.9*	1.0
5	COC(=O)c1sccc1NC(=O)/C=C/c1ccc(Cl)cc1Cl	-0.8	1.7	7.7	-2.5
6	CCCCOc1ccc(C(=O)Nc2cccc(C)n2)cc1	7.8	3.3	5.5	4.9
8	COC(=O)c1ccc(NC(=O)c2cccc(OC)c2)cc1	1.9	-2.5	0.5	-1.7
10	COc1ccc(C(=O)Nc2ccc3c(c2)C(=O)N(C)C3=O)cc1OC	9.8	-6.8	18.5	-2.1
13	Cn1c(SCC(=O)NCC2CCCO2)ncc(C(=O)Nc2ccccc2)c1=O (configuration not stated)	5.5	2.1	12.8	9.2
15	CN(c1cccc(NC(=O)COc2ccccc2)c1)S(C)(=O)=O	8.6	-6.5	-0.5	-3.5

#	HCV core dimer	TPT1 inhibitor	PP5 primary	PP1 inh
1	3.2	-9.6	0.2	0.7
4	0.9	2.9	-1.1	-1.0
5	-2.4	-2.0	-1.2	1.1
6	1.6	2.7	-0.4	2.0
8	-5.8	0.2	5.2	-1.0
10	-12.2	-5.5	-0.6	1.7
13	-2.3	0.3	4.5	-5.7
15	2.3	0.1	0.7	-2.4

Screens (PubChem)
